HCMV UL50-53 inh: inhibitors of HCMV UL50-UL53 interaction, biochemical, HTRF. HCMV UL50-UL53 nuclear egress complex (human cytomegalovirus). normalized percent inhibition. inhibition, % (no concentration beside the values). 190,000 tested, 0.15% active. AID 1918969, 2023;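 active = both replicates at 50% or more, plus weaker picks with an unusually low signal ratio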;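 note: stock transfer was 100 nL into about 20 µL; 0% = negative control wells and 100% = wells with untagged competitor protein; inactives centre near -12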
Starred values were filed as active, the others as inactive; & = joins results of further samples. Only part of the results is shown; count on the stated rates, not on these rows.

Molecule	HCMV UL50-53 inh
CCc1ccc(/C=C2\SC(=S)N(CCCC(=O)NC3CCCC3)C2=O)cc1	-9
CC(C)c1nc(CN(C)C(=O)NC(C(=O)NC(Cc2ccccc2)CC(O)C(Cc2ccccc2)NC(=O)OCc2cncs2)C(C)C)cs1 (centres undefined)	-5&-57
COc1ccc(C2C(C#N)=C(SC)NC3=C2C(=O)CC(C)(C)C3)cc1 (centres undefined)	-34
N#CC(Cc1ccc(O)cc1)c1ccc(O)cc1 (centres undefined)	-5&-32&-32
O=C(CCCN1C(=O)/C(=C/C=C/c2ccccc2)SC1=S)Nc1cccc(F)c1	-9
O=c1oc2cc(OCc3ccccc3)ccc2cc1-c1ccccn1	-8
O=C(CSc1c[nH]c2ccccc12)N1CCCCC1	-12
Cc1ccc2cc(CCNC(=O)CCc3ccccc3)c(=O)[nH]c2c1C	-16
CCCCCCCC/C=C\CCCCCC(=O)O	-20&-20
O=C(c1ccc(Cl)cc1)c1cnc2n1CCC2	-26

Next part; the last two above are carried over.
Molecule	HCMV UL50-53 inh
CCCCCCCC/C=C\CCCCCC(=O)O	-20&-20
O=C(c1ccc(Cl)cc1)c1cnc2n1CCC2	-26
O=S(=O)(c1cccc2cccnc12)N1CCc2ccccc2C1	-9
COc1cc(C)cc2oc(=O)cc(-c3ccccc3)c12	12
O=c1ncn2nc(Sc3ccc(F)cc3F)ccc2c1-c1c(Cl)cccc1Cl	-89
CCN1C(=O)/C(=C/c2cn(CCC#N)nc2-c2ccc(F)cc2)SC1=S	-21
CC(=O)Nc1nnc(SCC(=O)N2CCc3ccccc32)s1	4
CC(=O)c1cccc(-c2cc3c(n(C)c2=O)CCN(C(=O)c2ccc4[nH]c5c(c4c2)CCCC5)C3)c1	-17
CCCN1CCC(NCC(CC)(CC)CCC#N)CC1	-12
O=C(CCn1c(=O)oc2ccccc21)Nc1nccs1	-4
CC(O)c1nc2ccccc2n1Cc1cccc2ccccc12 (centres undefined)	-1
NCC(O)COc1ccc2c(c1)OCO2 (centres undefined)	1

(list continues)
Molecule	HCMV UL50-53 inh
Cc1ccc(C(=O)C(C)OC(=O)c2cc3ccccc3oc2=O)cc1 (centres undefined)	-12
COC(=O)c1ccc(C(=O)Nc2nc(-c3ccncc3)cs2)cc1	-13
O=C(Nc1nc2c(Cl)cccc2s1)C1CC1	-22
COC(=O)CSC1=C(C#N)C2(CCCCC2)C(c2nc(-c3ccccc3)cs2)C(N)=N1 (centres undefined)	-11
CC(C)(C)C(=O)Nc1sc2c(c1C(=O)O)CCCC2	7
Oc1c(CN2CCOCC2)ccc2cccnc12	-36
O=C(NCCCc1ccccc1)NC1CCCCC1	-8
CC(C)n1cc(-c2cc(C(=O)N(C)Cc3cccnc3)c3ccc(F)cc3n2)cn1	-11&-11
Cc1ccccc1NS(=O)(=O)N1CCCCC1	-3
CC(=O)NCCc1c(Cc2ccccc2)[nH]c2ccccc12	2

Quoted at random: 5 compounds from above
Molecule	HCMV UL50-53 inh
COC(=O)c1ccc(C(=O)Nc2nc(-c3ccncc3)cs2)cc1	-13
CC(C)n1cc(-c2cc(C(=O)N(C)Cc3cccnc3)c3ccc(F)cc3n2)cn1	-11&-11
O=C(Nc1nc2c(Cl)cccc2s1)C1CC1	-22
O=C(NCCCc1ccccc1)NC1CCCCC1	-8
COC(=O)CSC1=C(C#N)C2(CCCCC2)C(c2nc(-c3ccccc3)cs2)C(N)=N1 (centres undefined)	-11

Later entries
Molecule	HCMV UL50-53 inh
COC(=O)C1=C(NC(=O)CCCCl)CCS1	-10
N#Cc1nc(-c2ccc(Cl)cc2)oc1NCc1ccco1	-28
CC(=O)Nc1sc(N)nc1-c1ccccc1	-28
Cn1c(SCC(=O)NCc2ccccc2)nnc1-c1c[nH]c2ccccc12	-18
Cn1c(=O)ccc2ccccc21	-25
CCc1c(C)c(C#N)c2nc3ccccc3n2c1NCCN(C)C	-14
COC1C[C@H]2CCC(C)[C@@](O)(O2)C(=O)C(=O)N2CCCC[C@H]2C(=O)OC(C(C)CC2CCC(OC(=O)C(C)(CO)CO)C(OC)C2)CC(=O)C(C)C=C(C)C(O)C(OC)C(=O)C(C)CC(C)C=CC=CC=C1C (some centres undefined)	10
CC(C)(C)/[N+]([O-])=C/c1ccc(S(=O)(=O)O)cc1S(=O)(=O)O	-6
CN(C)C(=O)Cc1c[nH]c2ccccc12	-13
CS(=O)(=O)N1CCSC1c1cccc(Cl)c1 (centres undefined)	-10

Continued.
Molecule	HCMV UL50-53 inh
COc1cc(C[C@H]2COC(=O)[C@@H]2Cc2ccc(O)c(OC)c2)ccc1O	-12&-12
COc1ccc(C(=O)NCc2nnc(SC(C)C)n2-c2ccccc2)cc1	-19
Nc1ncnc2c1cnn2-c1ccccc1	-6
CC(C)n1c(CCCNC(=O)C(C)(C)C)nc2ccccc21	6
O=C(COC(=O)c1cc2ccccc2o1)c1ccc(Br)cc1	-8
Cc1cccc(OCC(O)CN2CCCCCC2)c1C (centres undefined)	2
NC(C(=O)O)c1ccc(C(=O)O)c(O)c1 (centres undefined)	-4
O=c1c(/C=C/c2ccccc2)cc2c(n1Cc1ccccn1)CCN(C1CCOCC1)C2	-61
COc1ccc(C2c3c(oc4ccccc4c3=O)C(=O)N2CCCOC(C)C)cc1 (centres undefined)	-5
CCOc1ccc(NC(=O)CCCN2C(=O)/C(=C\c3ccco3)SC2=S)cc1	-14

Sorted by number of heavy atoms (rising): 3 of the compounds above
Molecule	HCMV UL50-53 inh
NC(C(=O)O)c1ccc(C(=O)O)c(O)c1 (centres undefined)	-4
Nc1ncnc2c1cnn2-c1ccccc1	-6
Cc1cccc(OCC(O)CN2CCCCCC2)c1C (centres undefined)	2

Following part.
Molecule	HCMV UL50-53 inh
COc1cc(C)c(C(C)C)cc1S(=O)(=O)N1CCCC1	-12
CC1c2cccc(O)c2C(O)=C2C(=O)[C@]3(O)C(O)=C(C(N)=O)C(=O)[C@@H](N(C)C)[C@@H]3C[C@@H]21 (some centres undefined)	-70
CCSC(N)=Nc1ccc(C(F)(F)F)cc1	-10&-10
COc1ccc(S(=O)(=O)NC2CCCCCC2)c2ccccc12	3
O=C1NC(=Nc2ccccc2Br)S/C1=C/c1cccs1	-28&-1
CCCOc1ccc(-c2cc(C(F)(F)F)c(C#N)c(SCC(=O)O)n2)cc1	-6
O=c1[nH]cnc2scc(-c3ccc(F)cc3)c12	-1
COc1ccc(Cn2c(=O)oc3ccc(C)cc32)cc1	12&-6
Cc1cc2cc(CNC(=O)Cc3cccs3)ccc2n1C	4
Cc1ccc(N2CCN(C3CCc4c(c(C(=O)N5CCSCC5)nn4C)C3)CC2)c(C)c1 (centres undefined)	7

More records follow.
Molecule	HCMV UL50-53 inh
Clc1cnc(-n2cccc2)c(Br)c1	7
COc1cc2c(cc1O)CC[C@@H]1[C@H]2CC[C@]2(C)C(O)CC[C@@H]12 (some centres undefined)	-12
CC#C[C@@]1(O)CC[C@H]2[C@@H]3CCC4=CC(=O)CCC4=C3C(c3ccc(N(C)C)cc3)C[C@@]21C (some centres undefined)	9
N#CCc1ncc(CSc2nnnn2-c2ccccc2)s1	-15
N#CC(C#N)=C(N)Nc1ccccc1	10
O=C(c1cc2ccccc2c(=O)s1)N1CCOCC1	-23
Cc1cccc(NC(=O)CCC(=O)O)c1	-3
Cc1ccc(C(=O)Nc2cccc(C(F)(F)F)c2)cc1NC(=O)c1nccn1C	-20
Cc1cc(NC(=O)c2ccccc2)nc2c1c(=O)oc1ccccc12	2
O=C(O)c1cc(N=Nc2ccc(O)c(C(=O)O)c2)ccc1O	-142&-182

The list goes on:
Molecule	HCMV UL50-53 inh
CCc1nnc2c3cnn(-c4ccccc4)c3ncn12	-16
COc1ccc2c(c1)CC(c1nc(Cc3cccs3)no1)CO2 (centres undefined)	-9
O=C(NCc1ccc2c(c1)OCO2)c1cc2ccccc2oc1=O	10
C=CCSc1nc2sc(C)c(C)c2c(=O)[nH]1	-20
CCCCC(=O)OC1CC[C@H]2[C@@H]3CCc4cc(O)ccc4[C@@H]3CC[C@]12C (some centres undefined)	-18
COc1ccc(C2CC(=O)c3c(O)cc(OC4OC(COC5OC(C)C(O)C(O)C5O)C(O)C(O)C4O)cc3O2)cc1O (centres undefined)	2&4
COc1cccc2sc(=NC(=O)C3=COCCO3)n(C)c12	4&0
CS(=O)(=O)Nc1ccc(-c2ccc(C=C3SC(N)=NC3=O)o2)cc1	-21
CC12CCC(C(=O)O)(CC1=O)C2(C)C (centres undefined)	-4
Cc1c(Cn2c(C)nc3c(C(=O)O)cc(N4CCOCC4)cc32)cccc1C(F)(F)F	5

As a short view, some entries already given:
Molecule	HCMV UL50-53 inh
COc1cccc2sc(=NC(=O)C3=COCCO3)n(C)c12	4&0
CS(=O)(=O)Nc1ccc(-c2ccc(C=C3SC(N)=NC3=O)o2)cc1	-21
CC12CCC(C(=O)O)(CC1=O)C2(C)C (centres undefined)	-4
Cc1c(Cn2c(C)nc3c(C(=O)O)cc(N4CCOCC4)cc32)cccc1C(F)(F)F	5

The list goes on:
Molecule	HCMV UL50-53 inh
CCc1ccc(S(=O)(=O)Nc2ccncc2)cc1	-16
Cc1cc(C)cc(NC(=O)Cc2ccc(OC(C)(C)C(=O)O)cc2)c1	-13
COc1cccc(OCC(=O)Oc2ccc(C#N)cc2)c1	7
CSc1nc2nc(-c3cccc(C(F)(F)F)c3)ccn2n1	-13
CCCCCCCCCCCCCCCC(=O)NCCO	2&0&0&-14&-58
COc1ccc2c(c1)c1c3c(c4c5ccccc5n(C)c4c1n2CC(O)CN(C)C)C(=O)NC3=O (centres undefined)	-37
CC1CN(CCC(=O)Nc2ccc3c(c2)OCCO3)CC(C)O1 (centres undefined)	16
CCC(C(=O)NCCc1cc2ccc(OC)cc2[nH]c1=O)c1ccccc1 (centres undefined)	-15
CCCCCCCCCCCCCC(=O)N[C@@H](C)[C@H](O)c1ccccc1	-16
COc1cc2c(Nc3ccc(NC(=O)c4ccccc4)cc3)ncnc2cc1OCCCN1CCOCC1	-3&-10

Further results follow:
Molecule	HCMV UL50-53 inh
CCCCC[C@@H](O)/C=C/[C@@H]1[C@H](C/C=C\CCCC(=O)O)[C@@H](O)C[C@H]1O	-10&-10
O=C1CSC(c2cccc(C(F)(F)F)c2)N1c1ccc(F)c(Cl)c1 (centres undefined)	8
CCCn1cc(SCC(N)=O)c2ccccc21	-18
CC(C)(C)CC(=O)Nc1c(-c2cccs2)nc2ccccn12	-18
O=C(O)c1ccccc1C(=O)c1ccccc1	2
CCC(C)Sc1nnc(NC(=O)c2cc(Cl)ccc2OC)s1 (centres undefined)	-7
Cc1nsc(NC(=O)N2CCCN(c3ccccc3)CC2)n1	6
O=C(CCCN1C(=O)/C(=C/C=C/c2ccccc2)SC1=S)NC1=NCCS1	-4
CN(C)/C=C/c1onc(-c2c(F)cccc2Cl)c1C#N	-8
COC(=O)C1=C(C)NC(C)=C(C#N)C1c1cccs1 (centres undefined)	-15

Other entries follow:
Molecule	HCMV UL50-53 inh
CC[C@@H]1/C=C(\C)C[C@H](C)C[C@H](OC)[C@H]2O[C@@](O)(C(=O)C(=O)N3CCCC[C@H]3C(=O)O[C@H](/C(C)=C/[C@@H]3CC[C@@H](O)[C@H](OC)C3)[C@H](C)[C@@H](O)CC1=O)[C@H](C)C[C@@H]2OC	1
COC(=O)c1cccc(C(=O)Oc2ccc(F)cc2)n1	1
OC(COc1ccc(Cl)cc1)CN1CCC(Cc2ccccc2)CC1 (centres undefined)	1
CCCCCOC(=O)Nc1nc(=O)n(C2O[C@H](C)[C@@H](O)[C@H]2O)cc1F (some centres undefined)	-73
O=C(CCC/C=C\C[C@@H]1[C@@H](/C=C/[C@@H](O)CCc2ccccc2)[C@H](O)C[C@@H]1O)NC(CO)CO	8&8
Cc1ccccc1NC(=O)Cn1nnc2ccccc21	-10
Cc1oc2nc(SCC(=O)N3CCCCC3)nc(N)c2c1C	-4
Cc1ccccc1C1C(C#N)=C(SCc2ccccc2)NC(=O)C1C#N (centres undefined)	-34
CCOC(=O)c1ccc(N=Nc2ccc(O)c(CC(=O)O)c2)cc1	-35&-35
O=c1cc(CO)oc(CN2CCOCC2)c1O	-16

Next compounds follow.
Molecule	HCMV UL50-53 inh
CCOc1ccc(C(=O)NCCn2ccc3ccccc32)cc1	3
COc1ccc(CC2S/C(=N/c3ccccn3)NC2=O)cc1 (centres undefined)	-25
OCc1ccccc1	-54
Cc1ccc(/C=C/C(=O)O)cc1S(=O)(=O)N1CCCCC1	11
CCCCCCCCCCCCC/C=C/[C@H](O)[C@@H](CO)NC(=O)CCCCCCCCCCCCCCCCCCCCCCC	-21&-21
O=S(=O)(N1CCCCC1)N1CCCCC1	-11
O=C(CSc1cn(CCNC(=O)c2ccccc2)c2ccccc12)Nc1nccs1	-8
Cc1cccc(NC(=O)c2coc3ccccc3c2=O)n1	-5
Cc1nc(N)nc(Sc2ccc(Cl)cc2)c1Cl	14
O=C(CSC1CCCCC1)N1CCc2ccccc21	-11

(listing goes on)
Molecule	HCMV UL50-53 inh
O=S(=O)(NCc1nc2ccccc2[nH]1)c1ccc(Cl)cc1	-19
COc1ccc2cc(CCNC(=O)C3CC3)c(=O)[nH]c2c1	-12
CCCCN1C(=O)C2ON(c3ccccc3)C(c3ccc(OC)cc3)C2C1=O (centres undefined)	7
Nc1nc(N)c2nc(-c3cccc(O)c3)cnc2n1	-119
CCC(=O)NCc1nc2ccccc2n1Cc1ccc(Cl)cc1	-5
Nc1[nH]nc2nnc(-c3c(-c4ccccc4)nn4ccccc34)cc12	-61&-55
CC(C)=CCn1cnc(=N)c2[nH]cnc21	-17
O=c1oc2c(-c3ccc(F)cc3)cc(O)cc2s1	-4
OCc1ccc(OC2OC(CO)C(O)C(O)C2O)cc1 (centres undefined)	-13
CCCC[C@@H](CC)COC(=O)C(C#N)=C(c1ccccc1)c1ccccc1	-59
O=C(Nc1c(-c2cccs2)nc2ncccn12)c1ccco1	-28

Screening data (PubChem BioAssay)
